H5N1 antiviral: antiviral screen in MDCK cells, H5N1 avian flu. cytopathic effect, luminescence, 72 h; stronger effect = higher value; no value below 0 was filed and about half of the inactive calls have no number; reference of the scale not given here. inhibition, % at 50 µM. 0.07% of 96,000 active. AID 740; in the data active = inhibition above about 25%
* hit, by the source's call; i = inactive. An excerpt. The share of hits here may be higher or lower than overall.

SMILES	H5N1 antiviral
Cc1oc(-c2ccccc2F)nc1CS(=O)(=O)CC(=O)NCc1ccco1	0.4
Cc1cc(C(=O)NCc2ccc3c(c2)OCO3)n(-c2ccccc2)n1	0.5
CN1CCc2c(sc3c2C(=O)NC(c2ccco2)N3)C1 (stereo unspecified)	1.2
O=c1c(CN2CCN(Cc3ccccc3)CC2)coc2ccc(Cl)cc12	0.5
CCCCc1ccc(NC=C2C(=O)OC3(CCCCC3)OC2=O)cc1	i
Cn1c(=O)[nH]c(=O)c2c1nc(CN(Cc1ccccc1)Cc1ccccc1)n2CCN1CCOCC1	0.7
Cc1[nH]nc(N2CCCCCC2)c1[N+](=O)[O-]	1.0
CCOC(=O)c1c(C)n(-c2ccc(C)cc2)c2c(CC(C)=O)c(Br)c(OC)c(O)c12	i
CCn1c(Cn2nnc(-c3ccccc3)n2)nnc1SCC(=O)Nc1ccc(N(C)C)cc1	i
O=C(NC(Cc1ccccc1)C(=O)O)OCc1ccccc1 (stereo unspecified)	i
Cc1cccc(CS(=O)(=O)Cc2ccc(C(=O)NCCCN3CCOCC3)o2)c1	i
CCOCc1cc(C)[nH]c(=O)c1C#N	0.5
COc1ccc(/C=C2\CCOC2=O)cc1	i
O=C(CCn1c(=O)oc2ccccc21)N1CCN(C(c2ccccc2)c2ccccc2)CC1	i
CC1=C(C(N)=O)C(c2cccs2)n2nc(-c3cccc(Cl)c3)nc2N1 (stereo unspecified)	i
Cc1cc2c3c(c1)C1(C(=O)N3C(C)(C)CC2C)C(C#N)=C(N)Oc2cc(O)ccc21 (stereo unspecified)	1.5
CCOc1ccc(NC2=NCCC(=O)N2Cc2cccs2)cc1	i
CCOc1ccc(Cc2nc(N)nc(N)n2)cc1	i
O=C(O)C1C2C=CC3(O2)C1C(=O)N1c2ccccc2C2OCCC2C13 (stereo unspecified)	1.6
COC(=O)CNC(=O)C1CCN(c2nc(C)cc(C)n2)CC1	i
CCOc1ccc(C2CC(c3cccc(OC)c3)Nc3ncnn32)cc1 (stereo unspecified)	0.9
COc1ccc(CCNC(=O)C2CCN(Cc3nc(-c4cccc(Cl)c4)oc3C)CC2)cc1OC	i
O=C(CC(=O)N1CCN(c2ccccn2)CC1)Nc1ccc2nc3n(c(=O)c2c1)CCCCC3	2.2
COc1ccc(Oc2cn[nH]c2-c2ccc(O)cc2O)cc1	i
COc1ccc(CCNC(=O)CSc2nc3cc(Cl)ccc3o2)cc1OC	i

4 compounds already listed, ordered by formula weight, falling.
SMILES	H5N1 antiviral
Cn1c(=O)[nH]c(=O)c2c1nc(CN(Cc1ccccc1)Cc1ccccc1)n2CCN1CCOCC1	0.7
CC1=C(C(N)=O)C(c2cccs2)n2nc(-c3cccc(Cl)c3)nc2N1 (stereo unspecified)	i
Cc1cc(C(=O)NCc2ccc3c(c2)OCO3)n(-c2ccccc2)n1	0.5
O=C(NC(Cc1ccccc1)C(=O)O)OCc1ccccc1 (stereo unspecified)	i

Additional entries.
SMILES	H5N1 antiviral
O=C(O)c1cc(NCc2ccc3c(c2)OCO3)ccc1N1CCOCC1	i
CCOC(=O)CSc1nnc(CSc2nc3sc4c(c3c(=O)[nH]2)CCCC4)n1-c1ccccc1	0.3
CC(=O)c1ccc(NC(=O)C2CC(c3ccc(F)cc3)=NO2)cc1 (stereo unspecified)	3.2
CCn1cc(C(=O)Nc2cccc(NC(C)=O)c2)c2cc(OC)c(OC)cc2c1=O	1.4
C/C=C/c1ccc(Oc2nnnn2-c2ccc(C(N)=O)cc2)c(OC)c1	i
CC(=O)C1=C(O)C(=O)N(CCC(=O)O)C1c1ccc(Cl)cc1Cl (stereo unspecified)	0.2
Cc1nc2sc(C(c3cccs3)N3CC(C)CC(C)C3)c(O)n2n1 (stereo unspecified)	i
CCCS(=O)(=O)N1CCN(C(=O)c2ccco2)CC1	i
CC(=O)NS(=O)(=O)c1ccc(NC(=S)NC(=O)C(C)(C)C)cc1	i
CC1CCC(NC(=O)c2ccc(CS(=O)(=O)Cc3ccccc3F)o2)CC1 (stereo unspecified)	2.4
O=C(CCN1C(=O)c2ccncc2C1=O)NCc1ccc(Cl)cc1	i
O=C(c1ccc(C#CC2(O)CCCCC2)cc1)N1CCN(Cc2ccccc2)CC1	0.2
Cc1ccsc1C=Nc1ccc(O)cc1	i
CCOc1ccccc1C1C(C#N)=C(N)Oc2n[nH]c(CC)c21 (stereo unspecified)	i
CCC(=O)c1ccc(O)c(CC=C(C)C)c1	i
CN1CCN(C(=O)c2ccc3c(c2)N(Cc2ccc(Cl)cc2)C(=O)c2ccccc2S3=O)CC1 (stereo unspecified)	i
Cc1ccccc1-c1nc(CN2CCC(C(=O)NCCC3=CCCCC3)CC2)c(C)o1	i
CCOC(=O)c1cc2c(C)n(-c3ccc(C)cc3)c(C)c2ccc1=O	3.6
OC(CN1CCN(c2ccccn2)CC1)Cn1c2ccccc2c2ccccc21 (stereo unspecified)	i
Cc1c2cnn(CC(=O)N3CCC4(CC3)OCCO4)c(=O)c2c(C)n1Cc1ccccc1F	0.9
Cc1c(NC(=O)c2ccccc2NS(=O)(=O)c2ccc(Br)cc2)c(=O)n(-c2ccccc2)n1C	i
CCCc1cc(C(=O)Nc2sc3c(c2C(=O)OCC)CCCC3)no1	i
Cc1noc(C)c1S(=O)(=O)N(CC(=O)N1CCn2c1nc1ccccc12)c1ccc(C(C)C)cc1	0.3
Cc1nnc(NC2=NCCC2)s1	0.8
Cn1c2ccccc2c2cc(C(=O)NNS(=O)(=O)c3ccc(F)cc3)sc21	i

The listing continues.
SMILES	H5N1 antiviral
C(=N\c1nc2ccccc2[nH]1)/c1cccs1	i
CCOC(=O)C1C(=O)CC(C)(O)C(C(=O)OCC)C1c1ccco1 (stereo unspecified)	i
COC(=O)c1[nH]c(C)c(/C(O)=C2\C(=O)C(=O)N(CCN(C)C)C2c2cccc(OC)c2OC)c1C (stereo unspecified)	i
CCOc1ccc(C2C(C(=O)c3ccco3)=C(O)C(=O)N2CCN(C)C)cc1 (stereo unspecified)	i
Cc1c(N=C/C=C/c2ccccc2)c(=O)n(-c2ccccc2)n1C	i
CCc1ccccc1N1C[C@@]23C=C[C@@H](O2)C(C(=O)OCC(C)C)[C@H]3C1=O (stereo partly specified)	0.0
COc1ccc(-c2nn(CC(=O)Nc3ccc(Cl)c(Cl)c3)c(=O)c3ccccc23)cc1	i
CS(=O)(=O)N(CC(=O)NCc1ccncc1)Cc1ccc(Cl)cc1	0.7
CCn1c(SCC(=O)Nc2cccc(NC(=O)c3ccco3)c2)nnc1-c1cccs1	i
Cn1c(=O)c2c(nc(NCCc3ccccc3)n2Cc2ccc(F)cc2)n(C)c1=O	12.9
O=c1cc(O)nc(SCc2ccc(Cl)cc2)[nH]1	i
CC(NC(=O)Cn1c(=O)[nH]c2ccsc2c1=O)C12CC3CC(CC(C3)C1)C2 (stereo unspecified)	1.0
CC(C)(C)c1cnnn1-c1ccc(-c2csc(N)n2)cc1	1.2
O=C(CN(c1ccc(F)cc1)S(=O)(=O)c1ccc2c(c1)OCCO2)Nc1ccc2c(c1)OCO2	0.9
CC(C)c1cccc(C(C)C)c1OCCCCN1CCCC1	i
CC1=C(C(=O)Nc2ccccc2)C2(CCCCC2)C(C#N)=C(S)N1	1.1
COc1ccc(C2Oc3ccccc3C3=C2C(c2cccs2)n2ncnc2N3)cc1 (stereo unspecified)	3.9
O=c1oc2ccccc2c2nccnc12	i
O=C(O)CCCc1nc(-c2ccccc2)no1	i
COc1ccc(NS(=O)(=O)c2ccc(NC(=O)c3cnn4c(C(F)F)cc(-c5ccc(C)cc5)nc34)cc2)cc1	i
COCCNC(=O)c1cc(-c2cccnc2)nc2ccc(Br)cc12	i
CCOc1ccccc1NC(=O)N1CCCC1C(=O)Nc1ccc(NC(C)=O)cc1 (stereo unspecified)	0.4
O=C(Cn1ncc2c1-c1ccccc1OC2)Nc1nc2ccccc2s1	i
CN(C)C=Nc1nonc1N	0.1
CC(C)(C)C(=O)CN1C(=O)C2(OCCO2)c2ccccc21	i

More compounds.
SMILES	H5N1 antiviral
O=C1CCCN1CN(C(=O)c1ccccc1)c1ccc(F)cc1	i
COc1cc(NC(=O)Cc2cccs2)ccc1-n1cnnn1	0.7
COc1ccc(CCNS(=O)(=O)c2ccc3oc(C(=O)O)c(C)c3c2)cc1OC	0.2
C1=C(c2ccccc2)Nc2nnnn2C1c1cccs1 (stereo unspecified)	i
CCOc1cc(C2NC(=O)NC(O)(C(F)(F)F)C2C(=O)c2ccc(OC)cc2)ccc1O (stereo unspecified)	0.4
COc1ccc(-c2nc(-n3c(C)c(C(C)=O)c(C(C)=O)c3C)sc2C)cc1	2.6
CC12CC3CC(C)(C1)CC(C(=O)NC(=S)N1CCOCC1)(C3)C2	1.2
COc1ccc(NC(=O)CSc2nnc(-c3ccccn3)n2-c2ccccc2)cc1OC	0.9
c1ccc(-c2nnn(C34CC5CC(CC(C5)C3)C4)n2)cc1	i
CN1C(=O)N(C)C(=O)C2(Cc3ccccc3N3CCOCC32)C1=O (stereo unspecified)	i
O=C(C1CCCN(S(=O)(=O)Cc2ccccc2)C1)N1CCc2ccccc21 (stereo unspecified)	2.8
COc1ccc(OC(C)=O)c(C2c3cc(OC)c(OC)cc3CCN2C(C)=O)c1 (stereo unspecified)	0.1
CCN(CC(=O)Nc1cccc(C(C)=O)c1)S(=O)(=O)c1ccc(OC)cc1	0.2
Cc1ccc(NC(=O)C2CCCN(c3ncccn3)C2)cc1F (stereo unspecified)	1.0
NC(=O)c1ccccc1NC(=O)/C=C/c1cccc(Cl)c1	i
Cc1ccc(NC(=O)c2noc3c2CCCCC3)cc1	i
CC1CCN(CCc2nc3cc(NC(=O)NC4CCCCC4)ccc3n2C)CC1	i
CCCN1CCN(CCCNC(=O)CCNC(=O)Cn2ccc3ccccc3c2=O)CC1	i
CCCCCCSC1=C(C#N)C(c2ccc(O)cc2)CC(=O)N1 (stereo unspecified)	i
OCC#CCSc1nnc(-c2ccncc2)o1	i
Cn1c(=O)c2c(-c3ccccc3)n(Cc3cccnc3)cc2n(C)c1=O	0.4
Cn1c(Cc2cccs2)n[nH]c1=S	i
Cc1onc(-c2c(Cl)cccc2Cl)c1C(N)=O	0.2
Cn1c(=O)oc2cc(S(=O)(=O)N3CCC(C(=O)Nc4ccc(OC(F)(F)F)cc4)CC3)ccc21	1.4
Cc1ccc(C(=O)Cn2cnc3ccccc3c2=O)cc1C	i

Next part.
SMILES	H5N1 antiviral
Cc1cc(C)nc(SCCS(=O)Cc2ccc(Cl)cc2)n1 (stereo unspecified)	0.2
COc1ccc(N(CC(=O)NCCC2=CCCCC2)S(C)(=O)=O)cc1	i
Cc1cc(Br)ccc1NC(=O)CN1C(=O)C2C3CC(c4ccccc4)C(C3)C2C1=O (stereo unspecified)	i
CC(C)=C1SC(N2CCCCC2)=NC1=O	0.7
CCOc1ccc2nc(SC(CC)C(=O)Nc3cc(C)on3)sc2c1 (stereo unspecified)	i
COc1ccc(CN(CC2CCCO2)S(=O)(=O)c2ccc(C(=O)O)cc2)cc1OC (stereo unspecified)	0.3
O=C(Nc1ccccc1C(=O)N1CCOCC1)c1ccco1	0.3
CN1CCC(=NNC(=O)c2ccco2)CC1	1.4
Cc1nc(SC2CC(=O)N(c3ccccc3)C2=O)nc2c1CCCC2 (stereo unspecified)	i
Cc1nn(CCCC(=O)N2CCc3ccccc3C2)c(=O)c2cc3sccc3n12	0.2
CCOC(=O)CCCCC(=O)c1[nH]c(=O)[nH]c1Cn1cnc2ccccc21	0.4
O=C(c1cccc2ccccc12)N1CCC(N2CCN(c3ccccc3)CC2)CC1	0.1
Cc1ccc(OCc2nnc(SCC(=O)c3cccc([N+](=O)[O-])c3)n2C)cc1	6.1
CCOc1ccc2oc(C(=O)Nc3ccc(N4CCOCC4)cc3)c(C)c2c1	i
COCCN(CCOC)S(=O)(=O)c1ccc(C(=O)NC2CCN(Cc3ccccc3)CC2)cc1	0.1
CCOC(=O)COn1c(=O)c(-c2cc3ccccc3o2)[n+]([O-])c2ccccc21	i
O=C1C2CCCN2C(c2ccc(F)c(F)c2)N1c1cccc(Cl)c1 (stereo unspecified)	i
CCOc1ccccc1C(=O)N(Cc1ccco1)C1CCS(=O)(=O)C1 (stereo unspecified)	1.1
Fc1ccc(Sc2cc(Cl)c(-c3ccccc3)nn2)cc1	0.8
COc1cc(NC(=O)C2CCN(S(=O)(=O)c3cnc[nH]3)CC2)cc(OC)c1OC	i
Cc1ccc(S(=O)(=O)N2CCN(C(=O)N3CCOCC3)C2C(C)C)cc1 (stereo unspecified)	0.8
O=C(CN(c1ccc(F)cc1)S(=O)(=O)c1ccc2c(c1)OCCO2)Nc1cccnc1	0.2
CC(C)C1CC(=O)NC(SCC(=O)Nc2ccc(Br)cc2)=C1C#N (stereo unspecified)	i
O=C(CSc1ccccc1)Nc1ccccc1N1CCOCC1	1.5
O=C(Nc1ccc(NC(=O)C2CCCN2C(=O)OCc2ccccc2)cc1)c1ccco1 (stereo unspecified)	i
Cn1c(=O)[nH]c(=O)c2c1nc(NCCCO)n2CCCc1ccccc1	0.3
CC(=O)NCCOc1cccc(OCCNC(C)=O)c1	i

Laid out differently: entries from further up.
molecule: C/C=C/c1ccc(Oc2nnnn2-c2ccc(C(N)=O)cc2)c(OC)c1
  H5N1 antiviral: i
molecule: CC(=O)C1=C(O)C(=O)N(CCC(=O)O)C1c1ccc(Cl)cc1Cl (stereo unspecified)
  H5N1 antiviral: 0.2
molecule: Cc1nc2sc(C(c3cccs3)N3CC(C)CC(C)C3)c(O)n2n1 (stereo unspecified)
  H5N1 antiviral: i
molecule: CCCS(=O)(=O)N1CCN(C(=O)c2ccco2)CC1
  H5N1 antiviral: i

Screens deposited in PubChem BioAssay by SRMLSC.
